STK33 inh: blocks human STK33 kinase activity; Q9BYT3; purified STK33, MBP phosphorylation, ADP-Glo luminescence; inhibition, % at 10 µM; hit rate 0.073% among 320,000;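 active = inhibition at or above 25%, using the most active replicate where run in duplicate; inactive = inhibition below 25%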
OX1R antag: antagonists of human orexin 1 receptor (OX1R); O43613; OX1R-expressing cells, FRET antagonist read-out; inhibition, % at 6.6 µM; hit rate 1.8% among 330,000; in the data active = inhibition mostly above about 38%, no sharp cut-off; inactive = mostly below about 40%;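 also: 0% = agonist challenge alone and 100% = reference antagonist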
Target sequence (O43613 whole entry, looked up): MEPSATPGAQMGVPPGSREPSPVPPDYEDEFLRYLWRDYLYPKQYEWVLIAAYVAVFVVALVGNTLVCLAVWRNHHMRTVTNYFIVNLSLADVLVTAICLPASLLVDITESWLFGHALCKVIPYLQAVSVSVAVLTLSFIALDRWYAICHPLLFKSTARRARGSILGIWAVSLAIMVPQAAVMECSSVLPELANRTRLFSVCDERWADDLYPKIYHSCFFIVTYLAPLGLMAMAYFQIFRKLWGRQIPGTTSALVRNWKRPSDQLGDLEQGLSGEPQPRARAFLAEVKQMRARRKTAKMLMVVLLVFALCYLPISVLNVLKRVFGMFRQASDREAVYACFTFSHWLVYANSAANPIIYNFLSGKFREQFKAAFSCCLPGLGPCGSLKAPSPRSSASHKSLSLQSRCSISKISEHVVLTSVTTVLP
* = called active by the depositor.

OX1R antag | STK33 inh | SMILES
3 | 2.3 | CC(C)C(=O)N1CCN(c2ccc(NC(=O)c3cccs3)cc2)CC1
18 | 4.5 | COc1cccc(/C=C2\CCc3ccccc3C2=O)c1
32 | 0.4 | O=c1cn[nH]c2ccccc12
12 | -0.9 | Cc1ccc(/C=C/C(=O)Nc2sc3c(c2C#N)CCCC3)o1
4 | -1.8 | CCOC(=O)N1CCN(C(=O)CCc2ccccc2)CC1
33 | 0.4 | O=C(Nc1cccc(-c2cn3c(n2)SCC3)c1)c1ccc2c(c1)OCO2
10 | -2.3 | C=CCSc1nc2nc(C)cc(C)n2n1
11 | -0.8 | Cc1c(Cc2ccccc2)c(=O)oc2cc(OCC(=O)NCC3CCC(C(=O)O)CC3)ccc12 (stereo not given)
23 | -3.6 | COc1cc(NC(=O)CSc2nnc(-c3ccncc3)o2)cc(OC)c1OC
9 | -1.1 | Cc1cccnc1NC(=O)c1ccc(S(=O)(=O)N2CCC(C)CC2)cc1
12 | 0.0 | Cc1ccccc1NC(=O)Cc1nnc(N)s1
9 | -1.5 | O=C(Cn1c(C(=O)OCCO)cc2ccccc21)c1ccccc1
12 | 0.1 | C=C1CC2C(CCC3(C)C2CCC3(O)C(C)=O)C2(C)CCC(=O)C=C12 (stereo not given)
18 | -1.1 | O=C(O)CCCCCCCCc1cn(CN2C(=O)c3ccccc3C2=O)nn1
31 | 0.6 | CCCCOc1ccc(C2OC34CCCCC3C(C#N)(C#N)C2(C#N)C(=N)O4)cc1 (stereo not given)

Part of the list above in another layout.
The line under a structure holds: OX1R antag | STK33 inh
- O=C(Cn1c(C(=O)OCCO)cc2ccccc21)c1ccccc1
    9 | -1.5
- C=C1CC2C(CCC3(C)C2CCC3(O)C(C)=O)C2(C)CCC(=O)C=C12 (stereo not given)
    12 | 0.1
- O=C(O)CCCCCCCCc1cn(CN2C(=O)c3ccccc3C2=O)nn1
    18 | -1.1

Following part.
OX1R antag | STK33 inh | SMILES
8 | -1.2 | CCOC(=O)CSc1n[nH]c(=S)s1
25 | 0.2 | COc1ccc(/C=C(\C)C(=O)c2c(C)cc(C)[nH]c2=O)cc1
10 | 0.8 | CCc1ccc(NS(=O)(=O)c2cc3[nH]c(=O)c(=O)[nH]c3cc2C)cc1
9 | 0.1 | COc1ccccc1NC(=O)c1c([N+](=O)[O-])cnn1C
20 | -0.1 | N#Cc1nc(Cc2cccc3ccccc23)oc1NCc1ccc2c(c1)OCO2
5 | 0.1 | O=C(NCC1CCCO1)C1CCCN1C(=O)Nc1ccc(Cl)c(Cl)c1 (stereo not given)
7 | -2.1 | Cc1ccc2oc3c(c(=O)c2c1)C(c1cccc(Cl)c1)N(CCCN1CCOCC1)C3=O (stereo not given)
87* | 0.6 | NC(=O)c1cc(N)ccc1N1CCCC1
56 | -0.7 | O=C(O)CCCN1C(=O)c2ccc(Oc3cccc([N+](=O)[O-])c3)cc2C1=O
12 | -1.5 | Cc1nccn1CCCNC(=O)c1nc(Cn2cc([N+](=O)[O-])cn2)no1
4 | -0.6 | O=C(CSC1=NCCS1)N1CCOCC1
12 | -0.1 | CCOC(=O)C1CCN(C(=O)Nc2ccc(Cl)cc2Cl)CC1
22 | -0.8 | CSc1cccc(NS(=O)(=O)c2ccc3c(c2)CCN3C(C)=O)c1
10 | -0.9 | CCC1(c2ccccc2)NC(=O)N(CC(=O)N(C)CC(=O)Nc2ccc(F)c(F)c2F)C1=O (stereo not given)
35 | 1.7 | COC(=O)CCC(=O)OC1(C)C(=O)C2=CN(CCCCO)C(c3ccc(OC)cc3)=CC2=C(Br)C1=O (stereo not given)

Of the compounds above, 5 have an aryl methoxy group:
OX1R antag | STK33 inh | SMILES
18 | 4.5 | COc1cccc(/C=C2\CCc3ccccc3C2=O)c1
23 | -3.6 | COc1cc(NC(=O)CSc2nnc(-c3ccncc3)o2)cc(OC)c1OC
25 | 0.2 | COc1ccc(/C=C(\C)C(=O)c2c(C)cc(C)[nH]c2=O)cc1
9 | 0.1 | COc1ccccc1NC(=O)c1c([N+](=O)[O-])cnn1C
35 | 1.7 | COC(=O)CCC(=O)OC1(C)C(=O)C2=CN(CCCCO)C(c3ccc(OC)cc3)=CC2=C(Br)C1=O (stereo not given)

(further entries)
OX1R antag | STK33 inh | SMILES
12 | -1.8 | CCOc1ccc(NS(=O)(=O)c2ccc(SC)cc2)cc1
8 | -0.1 | Cc1nn(C(C)C(=O)NNC(=S)Nc2ccc(F)cc2)c(C)c1[N+](=O)[O-] (stereo not given)
48 | -0.6 | CC(=O)N1CCc2c(sc(NC(=O)C3CCCN3S(=O)(=O)c3cccs3)c2C#N)C1 (stereo not given)
18 | -1.3 | CC(C)NC(=O)Cn1c(=O)n(CC(=O)N2CCCCC2)c(=O)c2sccc21
20 | 0.7 | Cc1noc(C)c1S(=O)(=O)Nc1c(C)n(C)n(-c2ccccc2)c1=O
-3 | -0.1 | CSc1ccccc1NC(=O)CN(C)CC(=O)NCC(=O)Nc1ccc(F)cc1
-3 | 0.6 | COc1ccc(C(=O)NCc2ccc(N3CCN(C)CC3)cc2)cc1
2 | -1.1 | COC(=O)CSc1nnc(-c2cccnc2)o1
-1 | -1.2 | CCc1cc(=O)oc2cc(C)cc(OC(C)C(=O)NC3CC(C)(C)NC(C)(C)C3)c12 (stereo not given)
7 | -0.1 | O=C1Nc2ccc(Br)cc2/C1=C/C(=O)c1ccc2c(c1)OCO2
11 | -2.5 | O=c1cc(C(F)(F)F)oc2c1ccc1ccccc12
22 | 0.0 | N#Cc1nc(COc2cccc(Cl)c2)oc1NCc1ccncc1
7 | 0.5 | O=C(COC(=O)CNC(=O)c1ccc(Br)o1)Nc1ccccc1OC(F)F
17 | -2.0 | CN(CC(=O)Nc1ccc(F)cc1)C(=O)COc1ncnc2ccccc12
33 | -1.9 | CC(C)(C)C1CCC(=NNc2ccc(S(N)(=O)=O)cc2[N+](=O)[O-])CC1 (stereo not given)

Going on with the list:
OX1R antag | STK33 inh | SMILES
0 | -0.4 | O=c1c2ccccc2nc(CSc2nnnn2-c2ccccc2)n1-c1cccc(C(F)(F)F)c1
5 | 1.2 | CCOC(=O)C1CCN(Cc2coc3ccc(Cl)cc3c2=O)CC1
20 | 1.7 | CCCC(C(=O)NCC1CCCO1)N(Cc1ccco1)C(=O)CNS(=O)(=O)c1ccc(F)cc1 (stereo not given)
15 | -1.0 | O=C(/C=C/c1ccccc1)N1c2ccccc2Sc2ccc(C(F)(F)F)cc21
8 | -1.6 | Cc1cc(C)cc(OCC(=O)Nc2ccc3c(c2)OCCO3)c1
-4 | 1.0 | CN1CCN(c2nc(-c3ccccc3)cc(C(F)(F)F)n2)CC1
4 | 0.9 | O=C(NNc1c(Cl)cccc1Cl)c1sccc1Cl
70 | 0.5 | O=C(COC(=O)CNC(=O)c1ccccc1)Nc1ccc(F)c([N+](=O)[O-])c1
20 | 0.0 | CSc1ccc(C2N=C(c3ccccc3)NO2)cc1 (stereo not given)
3 | -0.5 | CCOC(=O)C1(CCCc2ccccc2)CCN(C(=O)CCCn2cncn2)CC1
6 | -1.0 | CC(C)COc1ccc(-c2nn(-c3ccccc3)cc2C(=O)Nc2nccs2)cc1
13 | 0.8 | O=C1CC(C(=O)N2CCN(Cc3ccccc3)CC2)CN1Cc1ccccc1 (stereo not given)
25 | -1.7 | COCCNC(=O)Cn1c(=O)n(Cc2ccc(C(=O)NCc3ccco3)cc2)c(=O)c2ccccc21
5 | -0.3 | COc1ccc(OCCCON2C(=O)c3ccccc3C2=O)cc1
9 | -1.4 | COC(=O)c1ccccc1C(=O)N(c1ccccc1)c1ccccc1

Entries of single compounds as entered above:
COCCNC(=O)Cn1c(=O)n(Cc2ccc(C(=O)NCc3ccco3)cc2)c(=O)c2ccccc21 is entered as OX1R antag: 25; STK33 inh: -1.7
CSc1ccc(C2N=C(c3ccccc3)NO2)cc1 (stereo not given) is entered as OX1R antag: 20; STK33 inh: 0.0

Copied from above, four compounds:
OX1R antag | STK33 inh | SMILES
12 | -0.1 | CCOC(=O)C1CCN(C(=O)Nc2ccc(Cl)cc2Cl)CC1
22 | -0.8 | CSc1cccc(NS(=O)(=O)c2ccc3c(c2)CCN3C(C)=O)c1
10 | -0.9 | CCC1(c2ccccc2)NC(=O)N(CC(=O)N(C)CC(=O)Nc2ccc(F)c(F)c2F)C1=O (stereo not given)
35 | 1.7 | COC(=O)CCC(=O)OC1(C)C(=O)C2=CN(CCCCO)C(c3ccc(OC)cc3)=CC2=C(Br)C1=O (stereo not given)

(more compounds)
OX1R antag | STK33 inh | SMILES
6 | -4.6 | Oc1ccc(CNc2ccc(F)cc2)c2cccnc12
7 | -1.0 | C/C(=N\NC(=O)Cn1nc(C)c([N+](=O)[O-])c1C)c1ccco1
16 | -1.4 | CC12Cc3ccc4ccccc4c3C=C1C[N+](C)(C)C2 (stereo not given)
-2 | -0.5 | COC(=O)c1c(NC(=O)c2ccco2)sc(C(=O)Nc2ccc(F)cc2)c1C
10 | -1.9 | O=C(CCC1CCCN(C(=O)C2=CCCCC2)C1)N1CCN(c2ccccn2)CC1 (stereo not given)
32 | 1.4 | O=C(NNS(=O)(=O)c1ccccc1[N+](=O)[O-])c1cc2ccccc2cc1O
2 | -0.1 | COc1cccc(OC)c1OCCCCCCN1CCN(C)CC1
20 | -0.4 | Cc1ccccc1CN(c1ccc(C(=O)N2CCc3ccccc3C2)cc1)S(C)(=O)=O

Compound activity (PubChem BioAssay)

A portion of the library, and most or all hits are left out here.
